Assay outcomes deposited in PubChem BioAssay by several laboratories.
rRNA inh HTS – inhibits bacterial ribosomal RNA function over humanized ribosomes | GFP signal change (wild-type ribosome), % (concentration not given with the values) | 350,000 compounds, 1.6% hits | AID 720706 | E. coli WT GFP vs humanized-ribosome RFP mutants, fluorescence, 24 h; hits give low values; DMSO median 0, no signal -100;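 active = significant combined selectivity score with lowered wild-type GFP, culture density cut under 30%, mutant RFP and density less affected; inactive = any of these conditions unmet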; note: one replicate is shown; some compounds called inactive have numbers as strong as hits
ALR inh – blocks human ALR sulfhydryl oxidase activity | P55789 | purified ALR, DTT oxidation, H2O2 HRP-luminol luminescence | inhibition, % (test concentration not listed) | 290,000 compounds, 3.8% hits | AID 485317;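 active = mean and each replicate at 75% or more; inconclusive = only one of the two met; inactive = neither met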;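 note: stock transfer was 7.5 nL into about 7.5 µL; 0% = neutral wells and 100% = wells with inactivated enzyme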
Target sequence (P55789 whole entry, looked up): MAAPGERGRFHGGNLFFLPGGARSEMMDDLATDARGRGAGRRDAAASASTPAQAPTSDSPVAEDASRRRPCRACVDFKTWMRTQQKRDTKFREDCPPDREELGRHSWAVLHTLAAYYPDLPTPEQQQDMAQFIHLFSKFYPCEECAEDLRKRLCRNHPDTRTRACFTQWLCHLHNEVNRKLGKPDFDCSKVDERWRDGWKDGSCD
HNF4A DNA FP – change in binding of human HNF4 alpha to DNA; HNF4a-FITC DNA binding, fluorescence polarization, 1 h; activity change, % at 10 µM; 360,000 compounds, 0.3% hits; in the data active = activity change above about 30%, passing the limit was not always enough;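 note: controls were the assay level and a saturating level of protein; the project sought stronger binding though the title names inhibitors; some compounds called inactive have numbers as strong as hits; positive values seem to mean higher polarization but the record does not say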
Target sequence (P41235 whole entry, looked up): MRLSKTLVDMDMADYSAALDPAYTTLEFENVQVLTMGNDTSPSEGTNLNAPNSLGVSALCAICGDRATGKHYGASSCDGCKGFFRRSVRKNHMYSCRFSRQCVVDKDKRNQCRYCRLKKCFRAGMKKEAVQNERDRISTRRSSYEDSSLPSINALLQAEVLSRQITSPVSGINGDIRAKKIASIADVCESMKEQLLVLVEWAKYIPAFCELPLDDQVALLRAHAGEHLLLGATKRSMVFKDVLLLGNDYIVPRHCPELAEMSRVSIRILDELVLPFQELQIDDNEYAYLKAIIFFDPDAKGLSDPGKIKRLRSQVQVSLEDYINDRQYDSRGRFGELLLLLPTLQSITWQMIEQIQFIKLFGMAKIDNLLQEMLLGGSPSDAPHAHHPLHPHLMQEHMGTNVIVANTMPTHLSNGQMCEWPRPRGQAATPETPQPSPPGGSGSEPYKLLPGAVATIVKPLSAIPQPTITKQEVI
FGF22 binding – shifts melting point of recombinant human FGF22. Q9HCT0. recombinant FGF22 thermal shift, SYPRO orange fluorescence; percent of sucrose octasulfate shift, DMSO zero. calls only at 9.99 µM. 340,000 compounds, 1.5% hits. AID 651658;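 active = melting point raised past a set limit in the mean and every replicate; inconclusive = no clear call; three in four hits are not shown here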
Target sequence (Q9HCT0 whole entry, looked up): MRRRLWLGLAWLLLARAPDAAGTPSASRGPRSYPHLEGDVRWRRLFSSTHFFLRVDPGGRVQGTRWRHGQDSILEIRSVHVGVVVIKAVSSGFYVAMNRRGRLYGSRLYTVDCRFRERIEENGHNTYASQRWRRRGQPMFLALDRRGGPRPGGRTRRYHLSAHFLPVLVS
Vif TR-FRET – inhibitors of Vif binding to APOBEC3G peptide, primary screen, biochemical, TR-FRET, GST-Vif 1-94, biotin-A3G peptide, dose response retest (AID 1117319) | TR-FRET GST-Vif / biotin-A3G peptide binding; higher % means a stronger effect; test concentration not given here; strong numbers were not always called active | inhibition, %; hits with a dose series show IC50 in µM | 260,000 compounds, 0.57% hits;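 active = above the screen mean plus three standard deviations and confirmed in dose response; inconclusive = results disagree or hit not tested in dose response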;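 note: Vif residues 1-94 fused to GST binding biotinylated APOBEC3G peptide 110-148; 0% = full assay without inhibitor and 100% = GST in place of GST-Vif; retest series ran down from 100 µM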
Ecoli growth – inhibitors of Escherichia coli growth; OD600 absorbance (concentration not given with the values); AID 1053175; 330,000 compounds, 0.21% hits; OD600, 23 h; hits give low values;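 active = OD600 absorbance below the run mean of sample wells minus 3.6 SD, in any replicate, cut at about 0.56 in these data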;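 note: stock transfer was 300 nL into about 60 µL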
AF4-AF9 inh – inhibitors of human MLL-AF4/AF9 interaction; AlphaScreen, biotin-AF4 peptide binding to FLAG-AF9; inhibition, % at 10 µM; 350,000 compounds, 0.47% hits; AID 651704;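 active = every replicate reaching a set inhibition limit, whatever the replicate mean, cut at about 25% in these data; inconclusive = mean inhibition reaches that limit but some replicates miss it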;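 note: 0% = plate neutral control median and 100% = total signal loss; the record names both 10 and 1 µM as test concentration; the first replicate is given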
rRNA inh HTS OD600 – second read-out of rRNA inh HTS, no call of its own (marks repeat the call); OD600 change, %; measured here: OD600 growth;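 optical density of the mix in the first replicate; 0 = DMSO median and -100 = no signal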
rRNA inh HTS RFP – second read-out of rRNA inh HTS, no call of its own (marks repeat the call); RFP signal change, %; measured here: RFP humanized mutant strains;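 first replicate; 0 = DMSO median and -100 = no signal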
* = called active by the depositor; i = inactive; ? = inconclusive; . = not tested or not shown; & = joins results of further samples.

rRNA inh HTS | rRNA inh HTS OD600 | rRNA inh HTS RFP | ALR inh | HNF4A DNA FP | FGF22 binding | Vif TR-FRET | Ecoli growth | molecule | AF4-AF9 inh
3&14 | 4&22 | -1.1&-3.3 | 0 | 1.0 | i | . | . | Cc1noc(C)c1NC(=O)N(C)C[C@H]1Oc2ccc(NS(=O)(=O)c3cn(C)cn3)cc2C(=O)N([C@H](C)CO)C[C@@H]1C | -4.6&-4.5
-29 | -27 | -1.7 | -1 | -1.8 | i | . | 0.61 | Cc1cc(C)c(NC(=O)C2CCCO2)c(C)c1NC(=O)C1CCCO1 (stereo not drawn) | 0.4
. | . | . | . | -3.3 | . | 23% | 0.72 | O=C(NCc1ccc(F)cc1)C(c1ccncc1)N(C(=O)c1csnn1)C1CC1 (stereo not drawn) | .
. | . | . | -2 | 0.1 | . | -2% | 0.72 | Cn1c(SCC(=O)c2c(N)n(C)c(=O)n(C)c2=O)nnc1-c1ccc(F)cc1 | .
6 | 10 | -4.8 | 4 | 0.7 | i | . | 0.66 | Cc1cc(Cl)ccc1NC(=S)N1CCC(C(N)=O)(N2CCCCC2)CC1 | -3.4
. | . | . | -2 | 0.3 | . | 3% | 0.73 | Cc1c(NC(=O)C2CCCN2C(=O)c2cccs2)c(=O)n(-c2ccccc2)n1C (stereo not drawn) | .
. | . | . | -12 | -3.3 | . | -2% | 0.75 | COc1ccc(C(CC(=O)Nc2ccc(Cl)cc2F)NC(=O)C(F)(F)F)cc1 (stereo not drawn) | .
0 | 6 | -1.9 | . | -0.7 | i | . | . | COc1ccc(CNC(=O)Nc2ccc3c(c2)c(=O)n(C)n3Cc2cc(C)cc(C)c2)cc1 | -14
4 | 13 | -3.1 | . | -0.2 | i | . | 0.67 | O=C(NCc1ccc(F)cc1)C1CCCN(S(=O)(=O)c2ccc(-n3cnnn3)cc2)C1 (stereo not drawn) | -3.1
-15 | -7 | -2.4 | 13 | -2.6 | i | 77% | 0.65 | Cc1ccc(N=Cc2nc(-c3ccco3)oc2O)cc1 | ?
. | . | . | -3 | 0.0 | . | 4% | 0.73 | O=C(NCc1ccccc1)c1c(F)c(F)c(F)c(F)c1F | .
2 | 2 | -0.4 | . | -2.0 | i | 22% | 0.71 | Cc1cccc(NCCC(=O)c2ccc([N+](=O)[O-])cc2)c1C | -2.9
6 | 3 | 0.8 | . | . | i | . | . | Cn1cnc(S(=O)(=O)N[C@H]2C=C[C@@H](CC(=O)N3CCN(c4ccccc4)CC3)O[C@@H]2CO)c1 | 1.3
4 | 16 | -2.4 | 5 | 3.7 | i | . | 0.63 | COCC(=O)Nc1c(C(=O)Nc2ccc3c(c2)OCO3)oc2ccccc12 | -0.3
. | . | . | -3 | 0.5 | . | 4% | 0.65 | O=C(Nc1nccs1)c1csc2c1CCCC2 | .
22 | 13 | 4.3 | -32 | -5.7 | i | . | . | O=C(Cc1ccc([N+](=O)[O-])cc1)N/N=C/c1ccccc1F | 1.6
. | . | . | 0 | 3.4 | i | -9% | 0.71 | CNS(=O)(=O)c1ccc(C(=O)NCC(=O)NCCC(c2ccccc2)c2ccccc2)cc1 | 0.7
-1 | 6 | -0.7 | -1 | 0.8 | i | ? | . | COc1ccc(OCC(=O)N/N=C/c2ccncc2)cc1 | -0.5
. | . | . | 38 | 2.2 | . | -2% | 0.66 | COC(=O)C1=C(C)Nc2c(c(=O)n(C)c(=O)n2C)C1c1ccncc1 (stereo not drawn) | .
-2 | 2 | 1.0 | . | . | i | . | . | CO[C@H]1CN(C)C(=O)c2ccc(NC(=O)Nc3ccccc3)cc2OC[C@@H](C)NC[C@H]1C | 1.5
. | . | . | -16 | -0.6 | . | 17% | 0.7 | CCN(CC)C(=O)CN(c1ccc(C)cc1)S(=O)(=O)c1ccc(SC)cc1 | .
. | . | . | -3 | -1.0 | . | ? | 0.66 | CN(C)S(=O)(=O)c1ccc2c(c1)nc(CCC(=O)Nc1ccc3c(c1)OCO3)n2C | .
-2 | -15 | 5.8 | . | . | i | . | . | C[C@@H]1CN([C@H](C)CO)C(=O)c2cc(C#CCc3ccccc3)cnc2O[C@H]1CN(C)C(=O)C1CCC1 | -1.6
. | . | . | -7 | -0.1 | . | 6% | 0.67 | CCOC(=O)/C(C#N)=C1/C=CN(c2ccc(C)cc2)C=N1 | .
11 | 2 | 6.0 | . | . | i | . | . | COCC(=O)NCC1CCN(C(=O)C(=O)c2cccs2)CC1 | -1.0
5 | -16 | -1.3 | -2 | -1.4 | i | 14% | 0.68 | O=C(NC1CCCc2ccccc21)C1CCN(S(=O)(=O)c2cccc(C(F)(F)F)c2)CC1 (stereo not drawn) | 10
-26 | -24 | -11 | 3 | -1.4 | i | . | 0.73 | COc1ccc(NS(=O)(=O)c2ccc(C(=O)N(C)Cc3ccc(C)o3)cc2)cc1 | 0.8
2 | 6 | -0.1 | . | 2.6 | i | 65% | 0.75 | Cc1nc(N(C)C)c2sc(=S)n(C)c2n1 | 1.5
. | . | . | 20 | -1.5 | . | 18% | 0.69 | O=C(CSc1ncn[nH]1)c1ccc2c(c1)OCO2 | .
-5 | 4 | 4.3 | -7 | -3.2 | i | 4% | 0.7 | COc1ccc(NC(=O)NNC(=O)C(C)Oc2ccc3ccccc3c2)cc1OC (stereo not drawn) | -3.3

Reprinted from the part before: 2 compounds, then new ones.
rRNA inh HTS | rRNA inh HTS OD600 | rRNA inh HTS RFP | ALR inh | HNF4A DNA FP | FGF22 binding | Vif TR-FRET | Ecoli growth | molecule | AF4-AF9 inh
. | . | . | 20 | -1.5 | . | 18% | 0.69 | O=C(CSc1ncn[nH]1)c1ccc2c(c1)OCO2 | .
-5 | 4 | 4.3 | -7 | -3.2 | i | 4% | 0.7 | COc1ccc(NC(=O)NNC(=O)C(C)Oc2ccc3ccccc3c2)cc1OC (stereo not drawn) | -3.3
-6 | -1 | -2.7 | -5 | -3.3 | i | 4% | 0.71 | COCCCNc1ccc([N+](=O)[O-])cc1C(=O)Nc1cccc(C)n1 | 1.5
. | . | . | 1 | -1.5 | . | -8% | 0.71 | COC(CNC(=O)CCc1c(C)nc2c(-c3ccc(F)cc3)c(C)nn2c1C)OC | .
7 | 4 | 0.6 | -2 | -0.7 | i | -14% | 0.67 | CC(C)NC(=O)CSc1nc(N)c(-c2ccccc2)c(=O)[nH]1 | -2.2
-4 | -1 | -0.7 | 37 | -0.6 | i | -6% | 0.7 | CN(C(=O)COC(=O)C1CCN(S(=O)(=O)c2cccs2)CC1)c1ccccc1 | -0.8
3 | 7 | -1.0 | -12 | 2.9 | i | -4% | 0.67 | Cc1ccccc1S(=O)(=O)Cc1ccc(C(=O)NCCCN2CCCC2)o1 | -1.8
-13 | -10 | -2.0 | -2 | -0.4 | i | . | 0.66 | CC1CCN(C(=O)C(=O)Nc2sc3c(c2C(=O)O)CC(C)(C)OC3)CC1 | -0.9
2 | 9 | -2.5 | -2 | 1.1 | i | . | 0.69 | Cc1ccc(-c2nc3cccnc3s2)cc1NC(=O)c1ccco1 | 5.5
0 | 6 | -2.5 | . | . | i | . | . | CO[C@H](CN(C)C(=O)c1ccc2c(c1)OCO2)[C@H](C)CN([C@H](C)CO)S(=O)(=O)c1ccc(C)cc1 | -0.4
9 | -14 | -1.8 | -4 | 2.1 | i | . | 0.72 | CCOC(=O)Cn1c(-c2ccccc2)ccc(C#N)c1=O | -1.1
9 | 8 | 2.4 | . | 12 | i | . | . | CC(NC(=O)C1CCCN1C(=O)OC(C)(C)C)C(=O)OCc1ccccc1 (stereo not drawn) | 1.8
. | . | . | -15 | 0.6 | . | 5% | 0.73 | CN(c1cccc(NC(=O)CN2C(=O)c3ccccc3S2(=O)=O)c1)S(C)(=O)=O | .
0 | -2 | -1.3 | -7 | -1.1 | i | . | 0.69 | O=C(CSc1nc2c(c(=O)[nH]1)CCC2)Nc1ccc(F)cc1 | 0.6
-2 | -10 | 7.2 | . | . | i | . | . | C[C@H]1CN([C@@H](C)CO)S(=O)(=O)c2ccc(C3=CCCC3)cc2O[C@@H]1CN(C)C(=O)C1CCC1 | -1.7
. | . | . | 26 | -0.8 | . | 3% | 0.77 | Cc1cc(OC(=O)c2ccccc2Br)cc(=O)n1C | .
4 | -5 | 1.7 | . | . | i | . | . | Cc1ccc(-c2ccc([C@@H]3[C@@H](CO)N4C(=O)CN(C(=O)CN5CCOCC5)C[C@H]34)cc2)cc1 | 1.6
-2 | -4 | 0.2 | -12 | 13 | i | -6% | 0.68 | Nc1ncc(Br)cc1S(=O)(=O)NCCC(=O)NCc1ccc(F)cc1 | -6.7
-40 | -64 | -0.9 | 13 | 0.9 | i | 13% | 0.62 | COc1cccc(-c2coc3c(C)c4oc(=O)c(CCC(=O)O)c(C)c4cc23)c1 | 0.4
-5 | -4 | -0.6 | -13 | 3.4 | i | . | 0.59 | Clc1ccc(-c2cc(CN3CCCCC3)no2)cc1Cl | 1.6
14 | 17 | 1.5 | -31 | -2.8 | i | . | 0.65 | CCOc1ccccc1NC(=S)N1CCC(NC(=O)C(C)(C)C)CC1 | -1.4
. | . | . | -10 | -6.6 | . | -1% | 0.68 | O=C(CCCn1c(=O)oc2ccccc21)N1CCc2ccccc2C1 | .
. | . | . | . | 3.6 | i | . | . | Cc1cccc(C(=O)NCN2CCN(c3ccccc3C#N)CC2)c1 | 0.5
-22* | 8.9* | 8.9* | -27 | -4.5 | i | 4% | 0.68 | O=C(C[n+]1ccn(-c2ccccc2)c1)c1ccc([N+](=O)[O-])cc1 | 4.3
5 | 11 | -1.3 | 2 | -0.4 | i | . | 0.7 | Cc1ccc(NC(=O)COC(=O)c2cc(=O)c3ccccc3o2)cc1F | -4.1

Ten compounds out of the list, sorted by heavy-atom count, high to low.
rRNA inh HTS | rRNA inh HTS OD600 | rRNA inh HTS RFP | ALR inh | HNF4A DNA FP | FGF22 binding | Vif TR-FRET | Ecoli growth | molecule | AF4-AF9 inh
4 | -5 | 1.7 | . | . | i | . | . | Cc1ccc(-c2ccc([C@@H]3[C@@H](CO)N4C(=O)CN(C(=O)CN5CCOCC5)C[C@H]34)cc2)cc1 | 1.6
-40 | -64 | -0.9 | 13 | 0.9 | i | 13% | 0.62 | COc1cccc(-c2coc3c(C)c4oc(=O)c(CCC(=O)O)c(C)c4cc23)c1 | 0.4
. | . | . | -15 | 0.6 | . | 5% | 0.73 | CN(c1cccc(NC(=O)CN2C(=O)c3ccccc3S2(=O)=O)c1)S(C)(=O)=O | .
9 | 8 | 2.4 | . | 12 | i | . | . | CC(NC(=O)C1CCCN1C(=O)OC(C)(C)C)C(=O)OCc1ccccc1 (stereo not drawn) | 1.8
5 | 11 | -1.3 | 2 | -0.4 | i | . | 0.7 | Cc1ccc(NC(=O)COC(=O)c2cc(=O)c3ccccc3o2)cc1F | -4.1
-2 | -4 | 0.2 | -12 | 13 | i | -6% | 0.68 | Nc1ncc(Br)cc1S(=O)(=O)NCCC(=O)NCc1ccc(F)cc1 | -6.7
-22* | 8.9* | 8.9* | -27 | -4.5 | i | 4% | 0.68 | O=C(C[n+]1ccn(-c2ccccc2)c1)c1ccc([N+](=O)[O-])cc1 | 4.3
0 | -2 | -1.3 | -7 | -1.1 | i | . | 0.69 | O=C(CSc1nc2c(c(=O)[nH]1)CCC2)Nc1ccc(F)cc1 | 0.6
-5 | -4 | -0.6 | -13 | 3.4 | i | . | 0.59 | Clc1ccc(-c2cc(CN3CCCCC3)no2)cc1Cl | 1.6
. | . | . | 26 | -0.8 | . | 3% | 0.77 | Cc1cc(OC(=O)c2ccccc2Br)cc(=O)n1C | .

These rows are one share of the data; count on the stated rates, not on these rows.
